# Ecoli growth: inhibitors of Escherichia coli growth. AID 1053175. OD600 absorbance (test concentration not listed). 330,000 tested, 0.21% active. OD600, 23 h; stronger effect = lower value;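 active = OD600 absorbance below the run mean of sample wells minus 3.6 SD, in any replicate, cut at about 0.56 in these data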;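 also: stock transfer was 300 nL into about 60 µL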
# Vif TR-FRET: inhibitors of Vif binding to APOBEC3G peptide, primary screen, biochemical, TR-FRET, GST-Vif 1-94, biotin-A3G peptide, dose response retest (AID 1117319) | TR-FRET GST-Vif / biotin-A3G peptide binding; higher % means a stronger effect; test concentration not given here; strong numbers were not always called active | one-dose inhibition, %; IC50 in µM for titrated hits | 260,000 tested, 0.57% active;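 active = above the screen mean plus three standard deviations and confirmed in dose response; inconclusive = results disagree or hit not tested in dose response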;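 also: Vif residues 1-94 fused to GST binding biotinylated APOBEC3G peptide 110-148; 0% = full assay without inhibitor and 100% = GST in place of GST-Vif; retest series ran down from 100 µM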
# B2AR ag: human beta-2 adrenergic receptor agonism by FAP. P07550. Am2.2-beta2AR cells, FAP receptor internalization, flow cytometry; reference of the scale not given here. response, % (concentration not given with the values). 340,000 tested, 0.43% active. AID 504454;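 active = response above a set limit, near 3 SD of response in nonfluorescent compounds, cut at about 42% in these data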;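 also: stock transfer was 100 nL into about 11 µL; a reference agonist was the positive control; negative values mostly stem from fluorescent compounds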
# UCH37 inh: inhibitors of human deubiquitinating enzyme UCH37 | AID 588478 | 330,000 tested, 0.33% active | purified proteasome/UCH37, Ub-AMC cleavage fluorescence | inhibition, % (no concentration beside the values) | Q9Y5K5;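 active = mean of two replicates above 20%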;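 also: 0% = compound-free wells with enzyme and 100% = wells lacking proteasome; stock transfer was 100 nL into about 20 µL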
#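 Assay system: Proteasome-bound UCH37. Buffer or medium: pH 7.4 Tris-HCl (50 mM) with ovalbumin, ATP-MgCl2, DTT. Incubation: 30 min preincubation with enzyme, 25 min cleavage at room temperature. Measured by: fluorescence, ex 355 nm, em 460 nm. Read-out basis: percent inhibition. Control set: wells without proteasome as full block, compound-free enzyme plus substrate as uninhibited.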
# A1 inh: inhibitors of the anti-apoptotic protein A1, read as caspase activation; 330,000 tested, 0.066% active; caspase activation, % (concentration not given with the values); MEF A1-2A-BIM cells, Caspase-Glo 3/7 luminescence, 3 h; percent of clofoctol response, vehicle zero;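 active = over half of replicate activation scores above 10%, or exactly half above 10 with the replicate mean above 10; inconclusive = replicate mean below 10 yet half the replicates above 10; inactive = over half of replicates below 10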;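 also: wells of about 30 µL received 50 nL stock; many hits fall short of the cut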
# HNF4A DNA FP: change in binding of human HNF4 alpha to DNA; HNF4a-FITC DNA binding, fluorescence polarization, 1 h; activity change, % at 10 µM; 360,000 tested, 0.3% active; AID 1224865; in the data active = activity change above about 30%, passing the limit was not always enough;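 also: controls were the assay level and a saturating level of protein; the project sought stronger binding though the title names inhibitors; some compounds called inactive have numbers as strong as hits; positive values seem to mean higher polarization but the record does not say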
# LANA-H2B inh: blocks KSHV LANA binding to histone H2A/H2B; 320,000 tested, 0.6% active; cell-free LANA-H2A/H2B peptide, fluorescence polarization; Q9QR71; inhibition, % (no concentration beside the values); in the data active = inhibition mostly above about 10%, no sharp cut-off; inactive = mostly below about 6.7%;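 also: stock transfer was 7.5 nL into about 10 µL; 0% = median of vehicle wells and 100% = median of positive control wells; one replicate is shown; the record names a cut of 25% in any replicate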
# Target sequence (Q9QR71 whole entry, looked up): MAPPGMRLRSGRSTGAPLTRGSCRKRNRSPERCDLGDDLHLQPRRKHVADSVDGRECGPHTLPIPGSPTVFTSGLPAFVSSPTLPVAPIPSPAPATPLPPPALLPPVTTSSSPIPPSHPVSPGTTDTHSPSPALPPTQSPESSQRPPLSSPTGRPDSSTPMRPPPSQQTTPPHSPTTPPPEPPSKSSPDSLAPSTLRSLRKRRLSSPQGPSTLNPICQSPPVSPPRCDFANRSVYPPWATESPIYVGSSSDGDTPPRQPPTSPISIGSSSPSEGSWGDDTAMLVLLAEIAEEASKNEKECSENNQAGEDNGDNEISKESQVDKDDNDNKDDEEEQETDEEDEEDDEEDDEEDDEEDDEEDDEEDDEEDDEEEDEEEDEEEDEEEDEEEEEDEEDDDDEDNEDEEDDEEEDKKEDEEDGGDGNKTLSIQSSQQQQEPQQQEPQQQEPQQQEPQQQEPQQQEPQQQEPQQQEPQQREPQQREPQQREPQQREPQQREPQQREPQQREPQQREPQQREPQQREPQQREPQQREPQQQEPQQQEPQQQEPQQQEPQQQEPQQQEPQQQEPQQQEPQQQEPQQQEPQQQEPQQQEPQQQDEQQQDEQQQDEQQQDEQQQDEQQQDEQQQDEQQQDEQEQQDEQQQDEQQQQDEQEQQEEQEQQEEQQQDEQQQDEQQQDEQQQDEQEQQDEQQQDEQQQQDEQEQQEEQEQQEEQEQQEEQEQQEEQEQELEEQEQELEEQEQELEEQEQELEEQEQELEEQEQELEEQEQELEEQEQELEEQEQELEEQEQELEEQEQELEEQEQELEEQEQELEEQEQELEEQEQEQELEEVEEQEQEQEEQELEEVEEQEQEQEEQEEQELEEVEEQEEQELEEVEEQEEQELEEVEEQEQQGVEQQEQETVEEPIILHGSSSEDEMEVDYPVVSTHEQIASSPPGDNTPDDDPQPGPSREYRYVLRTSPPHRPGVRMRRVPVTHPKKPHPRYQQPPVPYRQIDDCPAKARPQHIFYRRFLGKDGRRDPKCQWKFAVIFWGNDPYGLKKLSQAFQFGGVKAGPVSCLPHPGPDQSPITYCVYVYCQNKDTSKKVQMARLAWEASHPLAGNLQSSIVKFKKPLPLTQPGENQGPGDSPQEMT
# Starred values were filed as active, the others as inactive; ? = inconclusive; . = not tested or not shown; & = joins results of further samples.
SMILES,Ecoli growth,Vif TR-FRET,B2AR ag,UCH37 inh,A1 inh,HNF4A DNA FP,LANA-H2B inh
COc1cc(C)ccc1Oc1ccc([N+](=O)[O-])cc1,0.71,5%,2,3.6,.,3.2,.
Cc1ccc(S(=O)(=O)N2CCC(=O)N(CCOC(=O)Nc3cc(C)cc(C)c3)CC2)cc1,0.7,33%,1,0.9,0.0,0.7,-2.2
COC(=O)C1C(=O)CC(C)(O)C(C(=O)OC)C1c1ccc2c(c1)OCO2 (stereo not drawn),0.71,-3%,-1,2.1,-2.8,0.1,-0.8
CNC(=O)c1nc(C)n(-c2cc(Cl)ccc2Cl)n1,0.69,18%,1,0.7,0.9,-3.1,7.3
O=C(CSc1nnc(SCc2ccccc2Cl)s1)N/N=C/c1ccc(C(=O)O)cc1,.,?,2,.,-2.9,1.2,2.3
CCOC(=O)CSC(CC)C(=O)Nc1nnc(C(C)C)s1 (stereo not drawn),0.78,2%,7,8.3,0.5,-4.1,-3.2
O=C(ON=C1CCSCC1)c1ccccc1,0.69,.,0,3.3,0.4,3.8,-8.9
O=C(NCC1CCCO1)C1CCC(=O)N1Cc1ccccc1Cl (stereo not drawn),0.68,0%,-1,5.6,-0.4,0.8,6.2
O=S(=O)(NCC1CCC(NS(=O)(=O)c2c(F)cccc2F)CC1)c1ccc2c(c1)OCCO2 (stereo not drawn),0.7,.,-14,-0.4,-0.1,-0.1,4.7
c1ccc(CN2CCOCC2)cc1,0.67,-2%,-5,5.6,0.0,2.7,2.0
COc1ccc(C(=O)COC(=O)c2ccc(-n3cnnn3)cc2)c(OC)c1,0.71,.,10,1.8,-0.1,-1.6,-2.8
CN(C)C(=O)CCc1ccc2c3c([nH]c2c1)[C@]1(C)[C@@H](C(=O)N2CCOCC2)C[C@H](CC(=O)NCC24CC5CC(CC(C5)C2)C4)C(=O)N1CC3,0.71,-8%,-23,2.1,.,3.6,.
Cc1ccc(C(=O)Oc2ccc(Br)cc2C(=S)N2CCOCC2)cc1,0.64,.,3,1.8,1.0,0.0,4.3
CCn1c(SCC(=O)NCCc2ccccc2)nnc1-c1ccco1,0.74,0%,-3,-4.0,0.6,-2.3,-1.0
O=C(c1ccc(S(=O)(=O)c2ccccc2Cl)c([N+](=O)[O-])c1)N1CCN(Cc2ccccc2)CC1,0.69,.,5,3.4,1.5,1.0,-4.2
OC(Cn1nnc2ccccc21)Cn1c(C(F)(F)F)nc2ccccc21 (stereo not drawn),0.75,4%,-6,2.7,0.0,-2.2,0.6
COCCNC(=O)COc1ccc(Br)cc1Cl,0.76,73%,-5,1.9,0.6,2.5,0.9
CC(Sc1nc(-c2ccccc2)cc(C(F)(F)F)n1)C(=O)Nc1sc2c(c1C#N)CCC2 (stereo not drawn),0.69,-1%,-23,2.5,0.0,1.7,0.9
Cn1ncc(Cl)c(Oc2ccccc2)c1=O,0.72,2%,-21,0.3,1.0,-3.2,-1.0
COC(=O)Cc1c(O)ccn(Cc2cccc3ccccc23)c1=O,0.7,3%,0,4.7,0.4,3.4,3.4
CC(C(=O)N1CC2(C)CC1CC(C)(C)C2)N1C(=O)c2ccccc2C1=O (stereo not drawn),0.67,3%,-1,-0.7,-0.1,0.3,-1.8
CC(C)CN(C(=O)c1ccco1)C1CCS(=O)(=O)C1 (stereo not drawn),0.68,-4%,-2,4.7,0.7,-0.1,5.6
CCCc1ncc(C(=O)c2ccc(OC)cc2)n1C,0.65,-2%,-2,2.8,1.2,6.1,-1.4
CN(C)c1ccnc(NCc2ccccc2)c1C#N,0.63,2%,-2,1.9,-1.0,0.8,1.3
CCN(CC)C(=O)C1CCCN(C(=O)c2oc3ccc(C)cc3c2C)C1 (stereo not drawn),0.68,-1%,-10,2.6,-0.8,1.8,-1.0
CCOC(=O)c1c(NC(=O)Cn2nc(C(F)F)cc2C(F)F)sc(C)c1C,0.72,-3%,0,-0.9,0.0,2.1,4.0
CCCc1c(NC(=O)Nc2ccc(F)cc2)cnn1-c1ccccc1,0.65,.,8,4.3,0.2,-1.3,-4.4
CC(C)NC(=O)CSc1nnc(-c2ccc(F)cc2)c2ccccc12,0.7,2%,-9,2.7,0.6,3.3,-1.8
COc1cccc(CN(C)C(=O)C2CCC(=O)N(Cc3cccc(F)c3)C2)c1 (stereo not drawn),0.71,.,10,1.9,-0.6,4.7,-1.0
Cc1cccc(NC(=O)c2cccc(NS(=O)(=O)c3ccc(Cl)cc3)c2)c1,0.67,5%,6,1.3,-1.2,-0.4,-2.7
Cc1cn(CCOc2ccc(Cl)cc2)c(=O)[nH]c1=O,0.64,12%,3,1.8,0.4,-0.7,4.5
CCN1C(=S)N[C@@H](c2cccs2)C(C(=O)OC)=C1C,.,.,-8,.,0.9,-1.9,9.3
OC(CNCc1ccco1)Cn1c2ccccc2c2ccccc21 (stereo not drawn),0.67,-8%,6,0.9,0.0,-3.7,-9.6
Cc1ncc(COCc2ccccc2)c(CO)c1OCc1ccccc1,.,-3%,-2,.,.,-1.1,.
COc1ccccc1CNC(=O)CSc1ccc(Br)cc1,0.71,.,-4,1.9,0.6,0.2,4.3
COc1ccc(COC(=O)C2CCN(S(=O)(=O)c3ccc(F)cc3)CC2)cc1,0.63,6%,0,1.5,-0.3,2.6,-3.3
COc1cc(OC)c(-c2nc3cnccc3n2C)cc1OC,0.71,4%,-5,-1.0,0.5,0.6,-14
CC(NC(=O)C(c1ccccc1)c1ccccc1)C(=O)O (stereo not drawn),0.67,?,-6,3.2,1.2,0.3,-0.8
Cc1ccc(S(=O)(=O)Nc2nc3ccccc3nc2NCC2CCCO2)cc1 (stereo not drawn),0.7,-5%,0,-83,1.0,-6.5,0.3
CCOc1cc(CNCc2ccc3c(c2)OCO3)ccc1OC,0.69,.,-2,2.1,-1.3,0.8,-3.9
COC(=O)[C@@]1(Cc2ccccc2)[C@H]2C(=O)N(C)C(=O)[C@H]2[C@H]2CN(C)C(=NCc3ccccc3)N21,0.7,-2%,2,0.5,.,0.5,.
CCN(CC)CCCNC(=O)CN1C(=O)CSc2ccc(S(=O)(=O)N3CCOCC3)cc21,0.74,-5%,2,5.6,0.1,1.3,2.7
CC(=O)OCc1c(-c2ccccc2)c2cc([N+](=O)[O-])ccc2n1C,0.68,-1%,-16,4.3,1.1,1.0,-4.9
Cc1ccc2nc(-c3ccc(NC(=S)NCCC(C)C)cc3)sc2c1,0.75,-21%,5,-237,-2.3,2.7,4.6
COC(CNC(=O)c1cc(Sc2nnc(C)s2)nc2ccccc12)OC,0.7,-3%,-1,-0.4,0.1,-0.5,1.3
CC1(c2ccc(OC(F)F)cc2)NC(=O)N(CC(=O)Nc2cccnc2Cl)C1=O (stereo not drawn),0.71,1%,-2,1.2,1.0,-0.1,0.7
CCN1C(c2ccc(F)cc2)=CS/C1=C(\C#N)c1nnc2n1-c1ccccc1SC2,0.62,0%,-12,5.3,-0.6,0.7,1.4
NC(=O)C1(N2CCCCC2)CCN(C2CC(=O)NC2=O)CC1 (stereo not drawn),0.67,9%,2,4.4,-0.3,-2.4,-1.4
CNc1nc2c(Cl)cc(Cl)cc2s1,0.64,-9%,8,2.6,-1.2,2.3,-3.0
Cc1cc(C(=O)OCC(=O)NC2CCCCC2)c(C)o1,0.74,-3%,8,1.3,-0.2,3.2,1.5
COCCOC1CCN(C(=O)C2CCC(=O)N(Cc3cccc(F)c3)C2)CC1 (stereo not drawn),0.58,-2%,5,0.3,0.3,4.7,-1.6
COc1ccc(Cl)cc1NC(=O)CN1C(=O)CCS(=O)(=O)c2ccccc21,0.75,-3%&20%,-2,-5.8,.,-0.1,.
COc1ccccc1Nc1nc(N)nc(-c2cc3ccccc3o2)n1,0.7,-4%,0,-13,1.0,1.6,1.6
CCCCOC(=O)c1ccc(NC(=O)c2nn(C)cc2Br)cc1,0.67,.,3,2.6,-0.7,-3.2,-0.3
NCCCCCc1cn([C@@H](CCC(=O)O)C(=O)NCCCCCCCCCCC(=O)N2CCNCC2)nn1,.,.,-1,3.2,-0.1,3.5,3.4
CC1CCN(Cc2nc(Cl)c3c4c(sc3n2)CCC4)CC1,0.66,5%,6,-4.3,-0.9,1.3,-2.1
Cc1n[nH]c(=S)n1-c1ccccc1,0.68,0%,-2,3.8,0.4,0.4,4.9
COc1ccc(/C=C2\SC(=S)N(CC(=O)Nc3nnc(C)s3)C2=O)cc1,.,.,-5,.,-0.9,-1.4,8.4
CCOC(=O)C1(Cc2cccc(Cl)c2)CCCN(C(=O)CN2C(=O)CSC2=O)C1 (stereo not drawn),0.65,.,15,-2.7,0.3,1.4,6.4
O=C(Cn1ncn2nc(-c3ccccc3)cc2c1=O)NCc1ccccn1,0.66,.,-1,0.6,0.6,0.0,4.4
# The list goes on:
SMILES,Ecoli growth,Vif TR-FRET,B2AR ag,UCH37 inh,A1 inh,HNF4A DNA FP,LANA-H2B inh
COCCNC(=O)[C@@H]1CSC2c3ccccc3C(=O)N21 (stereo partly drawn),0.65,-4%,-2,0.9,0.3,0.4,5.1
COc1ccc(NC(=O)CN(C)C(=O)c2cccc(Oc3ccccc3)c2)cc1,0.64,-5%,0,1.0,0.4,-1.1,1.9
CC(C)(C)c1ccc(C(=O)NCCN2CCOCC2)cc1,0.63,.,0,3.6,0.0,4.9,-2.7
O=C(N/C(=C\c1cccc([N+](=O)[O-])c1)C(=O)N1CCCCC1)c1cccs1,0.65,0%,-10,0.2,0.1,2.2,-2.6
CCCCCCCCOc1ccc(C2CC(=O)NC2=O)cc1 (stereo not drawn),0.65,.,8,1.3,-1.2,0.0,1.1
COc1ccccc1CNC(=O)c1nn(-c2ccc(C)cc2)c(=O)c2c1c1ccccc1n2C,0.74,?,5,-53,0.0,-0.6,0.7
CCN(CC(=O)Nc1c(F)cccc1F)C(=O)c1cccnc1Sc1ccccc1,0.65,7%,1,3.7,0.1,-2.9,-5.9
OCCC1CN(Cc2ccc(Oc3ncccn3)cc2)CCN1Cc1ccc(F)c(F)c1 (stereo not drawn),0.69,-11%,11,-0.5,-0.3,0.0,-5.1
O=S(Cc1ccccc1)CC(O)(c1ccccc1)c1ccccc1 (stereo not drawn),0.66,?,10,-0.2,0.2,-2.0,0.2
Cc1ccc(C2(COC(=O)C(C)C)CO2)c(OC(=O)C(C)C)c1 (stereo not drawn),.,.,12,.,0.2,4.8,2.0
CCOC(=O)CNC(=O)C1COc2ccccc2O1 (stereo not drawn),0.67,2%,1,1.6,-0.5,8.2,-3.2
OCCC1CN(Cc2cnc(-c3ccccc3)s2)CCN1CCc1ccccc1 (stereo not drawn),0.68,.,-7,0.0,0.5,-0.5,1.8
Cc1c(C(=O)NNC(=O)Nc2ccc([N+](=O)[O-])cc2)oc2ccccc12,0.67,.,0,9.5,0.4,1.1,2.3

# Some of these compounds in order of molecular weight, largest number first:
SMILES,Ecoli growth,Vif TR-FRET,B2AR ag,UCH37 inh,A1 inh,HNF4A DNA FP,LANA-H2B inh
COc1ccccc1CNC(=O)c1nn(-c2ccc(C)cc2)c(=O)c2c1c1ccccc1n2C,0.74,?,5,-53,0.0,-0.6,0.7
Cc1ccc(C2(COC(=O)C(C)C)CO2)c(OC(=O)C(C)C)c1 (stereo not drawn),.,.,12,.,0.2,4.8,2.0
COCCNC(=O)[C@@H]1CSC2c3ccccc3C(=O)N21 (stereo partly drawn),0.65,-4%,-2,0.9,0.3,0.4,5.1
CC(C)(C)c1ccc(C(=O)NCCN2CCOCC2)cc1,0.63,.,0,3.6,0.0,4.9,-2.7
CCOC(=O)CNC(=O)C1COc2ccccc2O1 (stereo not drawn),0.67,2%,1,1.6,-0.5,8.2,-3.2
